Screening data as filed in PubChem BioAssay.
VDR inh = Inhibitors of the vitamin D receptor (VDR): qHTS; AID 504847, 2011; hit rate 0.93% among 400,000; VDR-SRC2-3 peptide fluorescence polarization, 2 h; Vitamin D3 receptor (Homo sapiens), P11473; Potency, µM, for the others: max response, negative = inhibition, actives largely listed as inhibitors; active means well fitted inhibition curve with a large enough effect; inconclusive means small, poorly fitted or top-dose-only effect, or another doubt; inactive means no such curve, though single readings can be large or run the other way; further: series mostly up to about 120 µM
Target sequence (P11473 whole entry, looked up): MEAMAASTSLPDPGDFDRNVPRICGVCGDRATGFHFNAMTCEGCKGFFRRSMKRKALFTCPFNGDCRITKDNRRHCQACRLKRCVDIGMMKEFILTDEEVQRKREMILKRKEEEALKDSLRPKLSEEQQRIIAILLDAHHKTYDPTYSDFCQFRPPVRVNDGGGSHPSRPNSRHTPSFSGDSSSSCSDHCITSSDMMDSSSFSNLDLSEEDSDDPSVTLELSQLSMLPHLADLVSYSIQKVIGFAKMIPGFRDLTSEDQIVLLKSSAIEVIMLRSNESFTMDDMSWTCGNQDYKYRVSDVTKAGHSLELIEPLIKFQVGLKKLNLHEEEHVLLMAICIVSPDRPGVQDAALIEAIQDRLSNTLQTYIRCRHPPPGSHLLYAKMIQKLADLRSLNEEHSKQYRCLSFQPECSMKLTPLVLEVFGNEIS
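After 23 nl compound addition and a short centrifugation, plates sat for 2 hours at ambient temperature; polarization of fluorescence then indicated loss of VDR binding to peptide SRC2-3.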
An asterisk follows results filed as active; ? = inconclusive; & = joins results of further samples. On the % scale 0 is the no-effect control and ±100 the full control effect; potency means the concentration at half of the fitted maximal effect. An excerpt; count on the stated rates, not on these rows.

SMILES	VDR inh
O=C(Nc1cccc(Cl)c1)Nn1cnnc1	-6.1%
O=C1c2ccccc2-c2nnc(-c3ccc(F)cc3)cc21	-10.5%
COc1ccc(CC(=O)Nc2cccc(-c3ccc4nncn4n3)c2)cc1OC	-6.4%
CCOC(=O)CNC(=O)CNC(=O)c1nn(-c2ccc(OC)c(Cl)c2)c(=O)c2ccccc12	-8.6%
Cc1cccc(C(=O)N(Cc2ccco2)Cc2ccccc2F)c1	-3.1%
Cc1ccc(N2CC(c3nnc(Cc4ccc(F)cc4Cl)o3)CC2=O)cc1 (configuration not stated)	1.9%
NC(=O)CN1CCN(c2nc(-c3ccc(F)cc3)cs2)CC1	0.8%
COc1ccc(OC(=O)CCc2c[nH]c3ccccc23)cc1	-0.7%
COc1cccc(NC(=S)N2CCN(c3ccccn3)CC2)c1	?
O=C(NCc1ccccc1)c1ccc2nccnc2c1	-10.7%
S=C(NCc1ccccn1)Nc1ccccc1	-11.1%
CC1(C)CC(=O)C2=C(C1)OC(N)=C(C#N)C2c1ccc(OC(=O)N2CCOCC2)cc1 (configuration not stated)	-19.2%
Cn1cccc1CC(=O)N/N=C/C(Cl)=C/c1ccccc1	13.7%
CN(C)CC/C=C1/c2ccccc2CS(=O)(=O)c2ccccc21	2.9%
Cc1cc(C=O)c(C)n1-c1ccc(Oc2ccc([N+](=O)[O-])cn2)cc1	-16.6%
COc1ccc(-c2oc3ccc(-c4cc(OC)c(OC)c(OC)c4)cc3c2-c2ccc(OC)nc2)cc1	8.5%
CCOC(=O)N1CCN(Cc2ccc3ccccc3c2)CC1	-9.4%
CCOc1ccccc1-c1ccc(C(=O)O)o1	?
COC(=O)/C(C#N)=C/c1ccc(C)o1	-18.9%
FC(F)(F)c1cnc(C(c2ccccc2)c2ncn[nH]2)c(Cl)c1 (configuration not stated)	12.7%
COc1ccc(NS(=O)(=O)c2cccc(C(=O)NCC3(N4CCCCC4)CCCCC3)c2)cc1	-0.2%
Cc1ccc(C)c(N2C(=N)S/C(=C\c3ccc(-c4ccccc4C(=O)O)o3)C2=O)c1	-21.3%
COc1ccc(CNc2nc3ccccc3s2)cc1OC	11.1%
CCOC(=O)c1c(C)[nH]c(C)c1S(=O)(=O)N1CCC(C(=O)Nc2cc(Cl)ccc2OC)CC1	5.0%
CCN(CC)S(=O)(=O)c1ccc(C(=O)NCc2ccc(C)cc2)cc1	4.7%
O=C(NCc1ccco1)c1cc(NS(=O)(=O)c2cccc([N+](=O)[O-])c2)ccc1O	-19.8%
O=C1CC(c2ccc(Cl)cc2)n2nc(N3C(=O)CCC3=O)nc2N1 (configuration not stated)	-17.5%
CC(C)(C)c1ccc(C(=O)O/N=C(\N)c2ccccn2)cc1	-8.3%
Cc1cc(NC(=O)CN(C)S(=O)(=O)c2ccc(-c3ccc(=O)[nH]n3)s2)ccc1Br	1.5%
CSCC[C@H](NC(=O)NCc1cccs1)C(=O)O	-2.5%
COc1cc(OC)c(C(=O)OCC(=O)N2CCOCC2)cc1OC	1.8%
Cc1ccc(CNC(=O)[C@H](Cc2ccccc2)NC(=O)C2CCNCC2)cc1	-24.4%
O=C(NC1CC1)c1ccc(NC(=O)C2CCCC2)cc1	-13.3%
COCCCNC(=O)CC1C[C@H](C(=O)N2CCCCC2)[C@@]2(C)c3[nH]c4ccc(OC)cc4c3CCN2C1=O (some centres not stated)	7.6%
CCOc1ccc(CCNC(=O)C2CCCN(c3ncnc4c3nc3n4CCCCC3)C2)cc1 (configuration not stated)	9.6%
COc1cccc(C2c3cc4c(cc3OC(C)(N3CCCC3)C2C)OCO4)c1O (configuration not stated)	8.6%
O=C(Nc1nc2ccc(S(=O)(=O)N3CCCC3)cc2s1)c1ccco1	0.7%
O=C(OCC(=O)N1CCCC1=O)c1cc2ccccc2o1	-10.9%
Cc1cccc(Nc2nc(N)c([N+](=O)[O-])c(N3CCN(C)CC3)n2)c1	-10.4%
O=C(Nc1ccc2c(c1)OCCO2)c1cc(-n2cnnc2)ccc1Cl	-3.6%
Nc1nc(N)c(N=O)c(OCC2CCCCC2)n1	2.1%&1.9%&6.1%
CN(C)CCCNC(=O)c1cc(Br)ccc1O	-7.8%
COCCCNCC(O)C(F)(F)F (configuration not stated)	4.6%
O=C(NCc1csc2ccccc12)Nc1cc(Cl)cc(Cl)c1	-6.3%
CCC(=O)C1=C(c2ccc(Cl)cc2)N(C(=O)CC)n2c(C)nnc2S1	-7.6%
COc1ccc(C)cc1S(=O)(=O)Nc1cc(Cl)ccc1Cl	-3.0%
CCCCCC(=O)/C=C/[C@H]1[C@H](O)CC(=O)[C@@H]1C/C=C\CCCC(=O)O	-1.1%
CC(=O)Nc1ccc(NC(=O)C(NS(=O)(=O)c2cccc3nsnc23)C(C)C)cc1 (configuration not stated)	2.0%

Arranged by value in VDR inh (rising): 5 from the list above.
SMILES	VDR inh
O=C(OCC(=O)N1CCCC1=O)c1cc2ccccc2o1	-10.9%
CCC(=O)C1=C(c2ccc(Cl)cc2)N(C(=O)CC)n2c(C)nnc2S1	-7.6%
O=C(NCc1csc2ccccc12)Nc1cc(Cl)cc(Cl)c1	-6.3%
O=C(Nc1ccc2c(c1)OCCO2)c1cc(-n2cnnc2)ccc1Cl	-3.6%
O=C(Nc1nc2ccc(S(=O)(=O)N3CCCC3)cc2s1)c1ccco1	0.7%

Next structures
SMILES	VDR inh
CCOC(=O)c1c(NC(=O)CN2C(=O)NC3(CCCCC3C)C2=O)sc(C)c1CC (configuration not stated)	-11.2%
Cc1cccc(NC(=O)c2cc([N+](=O)[O-])ccc2NCC2CCCO2)n1 (configuration not stated)	-8.3%
CCC1CCCCN1CCNC(=O)CNS(=O)(=O)c1ccc2nc(C)sc2c1 (configuration not stated)	-6.2%
COc1ccc(CN(C)Cc2nc3scc(-c4ccccc4)c3c(=O)[nH]2)cc1OC	-1.8%
COc1ccc(CNC(=O)COC(=O)c2ccc(S(=O)(=O)N3CCCCC3)cc2)cc1	-11.4%
O=C(NCc1ccccn1)/C(=N/O)c1ccccc1	-17.3%
CC(=O)Nc1cccc(NC(=S)Nc2cccc(Cl)c2C)c1	-13.4%
CCN(CC)CCN1C(=O)C(=O)/C(=C(/O)c2c(C)[nH]c(C(=O)OC)c2C)C1c1ccccc1 (configuration not stated)	18.0%
c1ccc(-n2nnnc2Oc2ccc(-n3ccnc3)cc2)cc1	-6.1%
COc1cccc([C@@H]2Oc3ccc(Br)cc3C(=O)[C@H]2OC(=O)NC2CCCC2)c1	-9.1%&-8.7%
CCOC(=O)c1ccc(-c2ccc3oc(-c4ccsc4)cc(=O)c3c2)cc1F	-22.1%
COc1cc(/C=N/O)ccc1Oc1cnccn1	-6.8%
Cc1cc(NC(=O)c2sccc2C)n(-c2cccc(Cl)c2)n1	-3.5%
Cc1cccc(CNc2nc(-c3cccnc3)nc3ccccc23)c1	3.8%
COc1ccc([C@H]2CC(=O)C=C(c3ccc4ncccc4c3)C2)cc1OC	-5.8%
CCOC(=O)c1sc(NC(=O)CN2CCN(c3ccccc3)CC2)nc1C	0.8%
COC(=O)c1ccc(C)c(NC(=O)CCc2ccc(OC)c(OC)c2)c1	-15.1%
Nc1nonc1NC(=O)CSc1nc2ccccc2s1	7.6%
COc1ccccc1N1CCN(S(=O)(=O)c2c(C)sc3ncn(CC(=O)Nc4ccc(C(F)(F)F)cc4)c(=O)c23)CC1	-9.1%
CC1(C)CC(NS(=O)(=O)c2ccc(Cl)cc2)CC(C)(C)N1	89.1µM*
COc1ccc(N2CCN(CCCNC(=O)c3ccc4nc(CCc5ccccc5)oc4c3)CC2)cc1	-4.1%
COc1ccccc1C(=O)N/N=C(\C)c1ccc(NC(=O)Cc2ccccc2)cc1	-10.7%
COc1ccc(Br)cc1C(=O)NC(=S)Nc1ccc(Cl)c(C(=O)O)c1	-7.1%
CC(C)CN(C(=O)CSc1nnc(-c2ccco2)o1)c1c(N)n(Cc2ccccc2)c(=O)[nH]c1=O	-7.2%
CCCCn1c(N)c(N(CC(C)C)C(=O)CSC(C)C(=O)Nc2cc(C)on2)c(=O)[nH]c1=O (configuration not stated)	-23.2%
O=C(CN1C(=O)c2cccc([N+](=O)[O-])c2C1=O)N1CCN(S(=O)(=O)c2ccccc2)CC1	8.8%
Cc1cccc(-c2nc3c4ccccc4nc(N4CCN(c5ccc(F)cc5)CC4)n3n2)c1	0.8%
CC(=C1C2C=CC1C1C(=O)NC(=O)C21)c1ccccc1 (configuration not stated)	-3.7%
CC(=O)c1cc2c(cc1NC(=O)CN1CCOCC1)OCO2	6.1%
CCn1cc(C(=O)N2CCN(c3cc(Cl)ccc3C)CC2)c(=O)c2cc(S(=O)(=O)N3CCCC3)ccc21	5.4%
CC(=O)NC1=NN(C(C)=O)C2(CCCC2)S1	3.8%
Cc1ccc(NS(=O)(=O)c2c(C)nc3sccn3c2=O)c(Cl)c1	-12.0%
CCOC(=O)c1noc2nc(C)n(CC(=O)Nc3cc(Cl)ccc3OC)c(=O)c12	-6.8%
O=C(CCc1nc2cccnc2n1-c1ccccc1)Nc1ccc(Cl)c(Cl)c1	-22.1%
O=C(NCCC1=CCCCC1)C1CC(=O)N(C2CCCCCC2)C1 (configuration not stated)	2.3%
Cc1c(CC(=O)O)c(=O)oc2cc(OCc3ccc(Br)cc3)ccc12	-7.2%
COc1ccccc1C(=O)NCC(=O)OCC(=O)N1CC(C)OC(C)C1 (configuration not stated)	6.1%
Cc1cccc(N2CCN(C(=O)CN3C(=O)COc4ccc(S(=O)(=O)N5CCCC5)cc43)CC2)c1C	8.2%
CN(C)C(=O)N=NC(=O)N(C)C	20µM*
CNc1ccccc1C(C)(C)c1cc(-c2cccc(Br)c2)no1	7.0%
O=C(Nc1ccc(N2CCOCC2)cc1)c1ccc2c(c1)OCO2	15.3%
COc1ccccc1-n1cc(C(=O)c2cc(Cl)ccc2O)cc(C#N)c1=O	0.9%
NC(=O)CC(NC(=O)Cc1ccc(Br)cc1)c1ccc(NCCc2ccc(F)cc2)c([N+](=O)[O-])c1 (configuration not stated)	14.7%
Cc1ccc(S(=O)(=O)N2CCN(C(=O)CSc3nnc(C)c(=O)[nH]3)CC2)cc1	2.9%
N#C/C(=C\c1ccc(OCc2ccc(Br)cc2)cc1)C(=O)Nc1cccc(C(=O)O)c1	?
CCc1ccccc1NC(=O)C1COc2ccccc2C1 (configuration not stated)	12.7%
Cc1ccc2c(c1)N(C(=O)N1CCC(C(=O)NCc3ccccc3F)CC1)CC(C)O2 (configuration not stated)	13.8%
CCCC(=O)Nc1cccc(-c2nc3ccccc3c(=O)o2)c1	-14.6%
COc1cccc(N2CCN(C(=S)NCCc3ccccc3)CC2)c1	0.3%
CC(=O)c1ccccc1C(=O)NCc1cccnc1	-7.6%
COc1cc([C@@H]2OC[C@@H]3[C@H]2CO[C@@H]3c2ccc3c(c2)OCO3)ccc1O	-6.2%
CC1CCCN(c2nc3c(c(=O)[nH]c(=O)n3C)n2CCSc2nc3ccccc3o2)C1 (configuration not stated)	-22.4%
CC1CCN(CCCCOc2cccc(Br)c2)CC1	-14.1%
CC(C)=CC(=O)Nc1ccc(Cl)cc1	14.3%
Cc1ccc(CS(=O)(=O)CCC(=O)NCCC(C)C)cc1	-2.6%
S=C(Nc1ccc(Cl)c(Cl)c1)N1CCCC1	-11.8%
O=C(c1ccc2c3c(cccc13)CC2)N1CCOCC1	-19.0%
Cc1ccc(NC(=O)CSCC(=O)OC(C)C(=O)Nc2ccc(S(N)(=O)=O)cc2)c(C)c1 (configuration not stated)	9.0%
O=C(NC1CC(=O)N(c2ccc(Cl)cc2)C1)c1ccc2c(c1)OCO2 (configuration not stated)	4.5%
Cc1nnc(NC2=NCCCCC2)o1	-2.0%

The listing continues.
SMILES	VDR inh
Cc1ccc2c(Cl)cc(Cl)c(OCC(=O)NC(C)(C)C)c2n1	-26.2%
O=C(CSc1nnc(C2CCCCC2)o1)Nc1ccccc1Cl	2.4%
Cc1ccc(CCNc2nc3c(S(=O)(=O)c4ccccc4)nnn3c3ccsc23)cc1	15.3%
Clc1ccccc1-c1ccc(CN2CCN(c3ccccc3)CC2)o1	19.3%
Cc1csc(SCC(=O)NC(=O)Cc2ccccc2)n1	-10.3%
CCCCN1C(=O)NC(c2ccc(OC)cc2)C(C(=O)OCc2ccccc2)=C1C (configuration not stated)	-1.9%
Cc1cc(C)c(S(=O)(=O)Nc2nccs2)c(C)c1	-13.1%
NC(=O)c1ccc2nc(-c3ccccc3)c(-c3ccccc3)nc2c1	-2.4%
Cc1ccc(Cl)c(NC(=O)COC(=O)c2nn(C)c(=O)c3ccccc23)c1Cl	3.7%
CCN(CC)c1ncnnc1-c1ccccc1	7.5%
CC1CN(S(=O)(=O)c2ccccc2)C(C)CN1S(=O)(=O)c1ccccc1 (configuration not stated)	1.6%
CC(=O)N1CCC2(CC1)C(C#N)=C(N)Oc1n[nH]c(C(F)(F)F)c12	4.0%

Overlap with the part before: 2 compounds; new compounds follow.
SMILES	VDR inh
CC1CN(S(=O)(=O)c2ccccc2)C(C)CN1S(=O)(=O)c1ccccc1 (configuration not stated)	1.6%
CC(=O)N1CCC2(CC1)C(C#N)=C(N)Oc1n[nH]c(C(F)(F)F)c12	4.0%
O=C(CSc1nc2ccccc2c(=O)n1Cc1ccco1)NCc1ccccc1	-2.7%
Cc1c(Cl)cccc1NC(=O)COC(=O)C12CC3CC(CC(O)(C3)C1)C2	7.7%
CC(=O)Oc1ccc(C(=O)[C@H]2[C@H]3C(=O)N(c4cccc5ccccc45)C(=O)[C@H]3[C@@H]3C=CC=NN32)cc1	-12.6%
Cc1ccc2cc(/C=N/NC(=O)[C@H]3C[C@@H]3c3ccccc3)c(Cl)nc2c1	6.0%
COc1ccc(N2C3=C(C(=O)CC(C)(C)C3)C(c3ccccc3OC)C3=C2CC(C)(C)CC3=O)cc1	-12.6%
COC(=O)[C@H]1CN(C(=O)c2ccccc2)C(=O)N1	-3.3%
O=C(N/C(=C/c1ccc(F)cc1)C(=O)N1CCCCC1)c1ccco1	-11.2%

An excerpt of these results, with the structure last:
VDR inh	smiles
-13.4%	CC(=O)Nc1cccc(NC(=S)Nc2cccc(Cl)c2C)c1
3.8%	Cc1cccc(CNc2nc(-c3cccnc3)nc3ccccc23)c1
